MT1-MMP act inh: MT1-MMP (human) activation inhibition; P50281; GFP/RFP ratio change, % at 20 µM; 360,000 compounds, 0.061% hits; HT1080 RFP-PRO-GFP cells, GFP/RFP ratio fluorescence, overnight; percent of plate control window, DMSO zero;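 active = GFP/RFP ratio change of at least 30% with cell ATP level not reduced by more than half and red fluorescence within 50% of control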; note: strong numbers were not always called active
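Read-out: GFP/RFP fluorescence ratio; Test system: RFP-PRO-GFP reporter HT1080 cells; Compound dosing: single-point 20 µM compound, 1% DMSO; Times: overnight compound exposure at 37 °C.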
Env fusion inh: blocks HIV Env-driven cell-cell fusion | HeLa-JRFL Env/CEM21 cell fusion, luciferase | inhibition, % at 12.3 µM | 360,000 compounds, 1.1% hits;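 active = mean replicate inhibition score of at least 50 and every replicate individually at or above 50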;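 note: 0% = plate neutral controls and 100% = maraviroc near 300 nM; one replicate is shown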
UUG fidelity: modulators of start codon recognition fidelity in yeast; S. cerevisiae UUG-firefly luciferase reporter, luminescence/redox ratio; 350,000 compounds, 0.13% hits; activity score, % at 18.7 µM;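 active = replicate mean at a twofold rise or more, about +100% in these data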;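 note: firefly luciferase made from a UUG start codon reports start codon fidelity; reporter light over untreated wells divided by growth signal over untreated wells; some hits fall short of that in this replicate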
Rce1 inhib: blocks yeast Ras-converting enzyme. Q03530. yeast membranes, quenched prenylated peptide cleavage fluorescence. calls only. 290,000 compounds, 0.27% hits. AID 2563;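 active = fall in fluorescence gain of 50% or more versus controls, with final raw signal at or below 3038400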;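 note: plate controls were neutral control wells for no effect and wells lacking membranes for full effect; tested at 10 µM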
Target sequence (Q03530 whole entry, looked up): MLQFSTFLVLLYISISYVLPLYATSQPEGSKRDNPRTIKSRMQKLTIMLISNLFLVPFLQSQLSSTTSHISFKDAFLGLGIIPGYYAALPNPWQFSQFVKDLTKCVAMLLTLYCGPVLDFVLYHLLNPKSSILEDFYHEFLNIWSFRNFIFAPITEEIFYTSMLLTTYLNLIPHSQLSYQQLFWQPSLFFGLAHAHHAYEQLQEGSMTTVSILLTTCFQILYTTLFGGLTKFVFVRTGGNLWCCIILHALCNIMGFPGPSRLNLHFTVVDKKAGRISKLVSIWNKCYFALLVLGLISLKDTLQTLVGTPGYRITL
PABP polyA inh: PABP-poly(A) binding inhibition; 290,000 compounds, 1% hits; inhibition, % at 35 µM; PABP-poly(A) RNA binding, fluorescence polarization; P11940;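 active = 50% or more with normal probe brightness, or confirmed in later tests; about a fifth of its hits are not listed in these tables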;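 note: calls also rest on retests at 20 µM and on dose response follow-up; controls were probe without protein and protein plus probe with vehicle; some compounds called inactive have numbers as strong as hits; many hits fall short of the cut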
CSC inhib: cancer stem cell inhibition. cancer stem cell-like cells viability, luminescence. inhibition, % at 7.5 µM. 300,000 compounds, 1.1% hits. AID 2717;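 active = mean at 75% or more and at least half the replicates too; tested in HMLE shEcad cells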;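 note: 0% = median of negative and 100% = median of positive control wells; the first replicate is given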
eIF4H inh: inhibitors of RNA binding by human eIF4H | Q15056 | eIF4H fluorescence polarization binding assay | inhibition, % at 35 µM | 290,000 compounds, 0.94% hits;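 active = 50% or more with normal probe brightness, or confirmed in later tests; about a fifth of its hits are not listed in these tables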;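 note: calls also rest on retests at 20 µM and on dose response follow-up; 0% = protein and probe with vehicle and 100% = probe without protein; strong numbers were not always called active; many hits fall short of the cut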
MT1-MMP act inh RFP: second read-out of MT1-MMP act inh, no call of its own (marks repeat the call); RFP signal change, %; measured here: RFP expression control read;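 0 = vehicle wells; hits needed this value within 50% of zero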
* = called active by the depositor; i = inactive; · = not tested or not shown; + = active, no number. Outcome played no part in choosing rows; overall some 2.9% were active at least once.

SMILES | MT1-MMP act inh | MT1-MMP act inh RFP | Env fusion inh | UUG fidelity | Rce1 inhib | PABP polyA inh | CSC inhib | eIF4H inh
O=C(COC(=O)c1cc(S(=O)(=O)N2CCOCC2)ccc1O)NCC1CCCO1 (centres undefined) | -4 | 1 | · | -16 | i | 6 | -2 | 5
O=C(NC1CCCC1)c1cc2ccccc2o1 | 1 | 3 | -18 | -13 | i | 8 | 10 | -2
CC(C)Cn1c(N)c(C(=O)COC(=O)c2ccc([N+](=O)[O-])o2)c(=O)n(C)c1=O | -2 | -10 | 15 | · | i | -7 | 10 | -1
Cc1ccc(NC(=O)COc2ncnc3cc([N+](=O)[O-])ccc23)cc1S(=O)(=O)N1CCOCC1 | 1 | -1 | 3 | 3 | · | 4 | -12 | 3
C=CCN1C(=O)C(=O)N(CC(=O)NCC(=O)Nc2ccc(F)c(F)c2F)C1=O | 2 | 5 | · | 16 | · | · | -6 | ·
CCOc1ccc(-c2[nH]nc3c2C(c2cccnc2)C(C#N)=C(N)O3)cc1 (centres undefined) | 1 | 3 | · | -9 | · | -7 | -9 | 5
CC(=O)c1ccc(N2CCN(C(=O)c3cccc(Oc4ccccc4)c3)CC2)cc1 | -1 | -9 | 18 | · | i | -15 | 0 | -6
Cc1cccc(NC(=O)CCN2CC(C)CC(C)C2)c1 (centres undefined) | 1 | 5 | 1 | -14 | i | 5 | -12 | 10
N#Cc1nc(Cc2cccc3ccccc23)oc1NCCCn1ccnc1 | 0 | -2 | · | -2 | i | -6 | 4 | -9
COCCCNC(=O)CCn1c(=O)c2ccccc2n(Cc2cccc([N+](=O)[O-])c2)c1=O | 1 | 2 | 6 | -24 | i | -2 | · | 8
O=C(NC1CCN(S(=O)(=O)c2ccc(Cl)cc2)CC1)c1cccnc1 | 1 | 5 | -6 | -6 | i | 10 | 25 | -3
O=C(O)c1ccc(N/N=C/c2cn(Cc3ccccc3F)c3ccccc23)cc1 | 3 | -6 | -98 | -32 | + | 14 | 11 | 21
CNC(=O)Cn1nc(C)c(S(=O)(=O)N2CCOCC2)c1C | 1 | 1 | · | -11 | · | · | -12 | ·
CO/C(N)=C(\C#N)N=Cc1ccccc1Cl | -2 | 1 | -18 | · | i | -3 | 0 | -9
O=C(Nc1ccccc1)Nc1ccc(Cl)c([N+](=O)[O-])c1 | 6 | -8 | -14 | · | i | 2 | -7 | 1
OC1(c2cccs2)CN(c2ccc(Cl)cc2)C2=[N+]1CCCS2 (centres undefined) | -1 | 8 | 9 | · | i | -6 | 36 | 1
O=C(Cn1ccc(NC(=O)OCc2ccccc2)nc1=O)NCCN1CCOCC1 | 1 | 6 | 4 | -12 | · | · | -33 | ·
CCN1C(=O)NC2C1N(S(C)(=O)=O)CCN2S(C)(=O)=O (centres undefined) | 1 | 4 | · | -3 | i | 12 | · | -2
CN(c1ccccc1)S(=O)(=O)c1cc(C(=O)OCC(N)=O)ccc1Cl | 1 | 1 | 15 | · | i | -17 | -4 | 1
COc1ccc(NC(C)=O)cc1S(=O)(=O)N1CCN(C/C=C/c2ccccc2)CC1 | -1 | -2 | -6 | · | i | 15 | 2 | -6
CC(C)=C1SC(N2CCN(c3cccc(C)c3)CC2)=NC1=O | -1 | 2 | -17 | 10 | i | -2 | -12 | 0
Cc1cccc(C)c1OCc1cc(C(=O)N(Cc2nccn2C)C(C)C)no1 | 3 | 1 | -3 | -17 | i | -4 | -3 | -4
COc1ccc(S(=O)(=O)NCC(c2ccco2)N2CCc3ccccc3C2)cc1 (centres undefined) | 0 | 2 | · | -1 | i | · | 1 | ·
N#Cc1ccccc1OCC(=O)OCC(=O)N1CCCC1 | 1 | 4 | 17 | -3 | · | · | -12 | ·
O=C(COC(=O)/C=C/c1ccc(S(=O)(=O)N2CCCCCC2)cc1)NCc1ccccc1Cl | -1 | 2 | -14 | · | i | -3 | 2 | -2
COCCN(C(=S)Nc1ccc(C)cc1C)C(C)c1cccs1 (centres undefined) | 6 | 1 | 14 | · | i | -8 | 30 | -2
CC(C)(C)c1cc[n+](-c2nc([O-])sc2C=O)cc1 | -2 | 5 | 10 | · | · | -8 | -10 | 20
Cc1ccc(S(=O)(=O)N2CCOCC2)cc1C(=O)NC1=NCCS1 | 2 | 2 | · | -17 | · | · | -7 | ·
CCOc1ccc(S(=O)(=O)NCc2ccc(F)cc2)c2cccnc12 | -3 | -2 | -5 | -11 | i | -9 | 18 | -10
CCOc1ccc(C(=O)NC(C(=O)NCc2ccccn2)C(C)C)cc1 (centres undefined) | 2 | 3 | · | · | i | 4 | 10 | 2
COc1ccccc1NC(=O)CSc1ncnc2c1oc1ccccc12 | 5 | 1 | 31 | 5 | · | -10 | -3 | -6
Nc1nc(NCCCN2CCOCC2)nc(Nc2ccc(Cl)cc2)c1[N+](=O)[O-] | -7 | -5 | -55 | 0 | i | 6 | 9 | -5
O=C(OCC(=O)N(C1CCCCC1)C1CCCCC1)c1cnccn1 | 1 | 3 | -3 | -12 | i | -2 | -7 | -12
COc1ccc(/C=N/Nc2nncn2N)cc1Br | 1 | 0 | -7 | -17 | i | -3 | 10 | 7
COc1cc2c(C(=O)NCc3ccc4c(c3)OCO4)cn(C)c(=O)c2cc1OC | 5 | 1 | -47 | -11 | i | 9 | -6 | 2
Cc1ccc(Cl)cc1N1CCN(C(c2ccc(C#N)cc2)c2nnnn2C2CCCC2)CC1 (centres undefined) | -5 | -4 | · | 11 | · | -5 | 19 | -9
Cc1ccc(CNC(=O)C2CC=CCC2C(=O)O)cc1 (centres undefined) | 1 | 4 | -17 | -8 | i | 7 | -5 | 8
CN(C(=O)COC(=O)/C=C/c1ccc(S(=O)(=O)N2CCc3ccccc32)cc1)C1CCS(=O)(=O)C1 (centres undefined) | 0 | 4 | 15 | -15 | i | 3 | -7 | -1
CC(Sc1nnnn1C1CC1)C(=O)Nc1cccc(S(=O)(=O)N2CCOCC2)c1 (centres undefined) | -2 | 0 | -193 | -7 | · | · | · | ·
CCOc1cc2[nH]c(=S)n(Cc3ccc(C(=O)NCCOC)cc3)c(=O)c2cc1OCC | 7 | 6 | -18 | -3 | i | 5 | -13 | -8
C/C(=N\NC(=O)Cc1c(C)[nH][nH]c1=O)c1cccc(Br)c1 | 0 | 0 | 9 | · | i | 6 | -9 | 2
CCCCC1=CC2=CC(=O)C(C)(OC(=O)CC)C(=O)C2=CN1C(CO)CO (centres undefined) | -6 | 2 | -21 | 10 | i | 26 | -13 | 39
Cc1ccccc1N1CCN(S(=O)(=O)C[C@]23CCC(CC2NC(=O)[C@@H](N)CCS(C)(=O)=O)C3(C)C)CC1 (some centres undefined) | 0 | -4 | 13 | -8 | · | · | -7 | ·
Cc1cc(=O)oc2cc(OCC(=O)NC3CC(C)(C)NC(C)(C)C3)c(Cl)cc12 | -3 | 2 | -4 | -13 | i | -2 | -11 | -4
Cn1ncc2c(=O)[nH]cnc21 | -5 | -2 | 2 | · | i | -15 | -7 | -10
CC(C(=O)N1CCN(c2ccccc2)CC1)N1C(=O)C2CC=CCC2C1=O (centres undefined) | 5 | 1 | 14 | -6 | i | -8 | 0 | 1
Cc1nn(Cc2ccccc2Cl)c2sc(C(=O)NC(C)(C)C)cc12 | 3 | -7 | · | · | i | -3 | 2 | 3
CCOC(=O)C(=O)N1CCC(C(=O)OC)CC1 | 5 | 11 | -1 | · | i | -5 | 4 | -4
CCCCc1ccc(NC(=S)N2CCCC2)cc1 | -2 | -1 | 1 | -23 | i | -13 | 15 | -7
Cc1ccc2oc(=O)c(/C=C(\O)c3ccco3)nc2c1 | 1 | -1 | -14 | -3 | i | 6 | 4 | 6

The results go on.
SMILES | MT1-MMP act inh | MT1-MMP act inh RFP | Env fusion inh | UUG fidelity | Rce1 inhib | PABP polyA inh | CSC inhib | eIF4H inh
NC(=O)c1ccc(NC(=O)CSc2cn(CC(=O)N3CCOCC3)c3ccccc23)cc1 | 12 | -3 | 15 | -9 | i | 2 | -6 | -1
COCCCNC(=S)N(Cc1ccccc1)Cc1ccc(F)cc1 | 3 | 6 | 6 | · | i | -3 | -16 | 3
CCCCOC(=O)Nc1nnc(CC)s1 | 16 | -5 | · | -14 | i | 14 | -5 | 1
CCOc1ccc(-c2nc3c(s2)CCc2onc(-c4ccc(OC)cc4)c2-3)cc1 | -7 | -4 | -14 | -14 | i | · | 46 | ·
CN(C)c1cccc(N(C)C)c1CNC(=O)C(C)(C)C | -3 | -2 | -12 | -8 | i | -11 | -20 | 0
COc1ccc2cc(CCNC(=O)C(C)(C)C)c(=O)[nH]c2c1 | 7 | -3 | 17 | -15 | i | -12 | -6 | 1
CCC1CCCCN1C(=O)COc1ccc(N(C)S(=O)(=O)c2ccc(C)cc2)cc1 (centres undefined) | 0 | -10 | 6 | -2 | i | 46 | 56 | 11
COC(=O)[C@]1(Cc2ccccc2)N[C@H](CN(C)S(=O)(=O)c2ccc(C(C)(C)C)cc2)[C@@H]2C(=O)N(C)C(=O)[C@@H]21 | 1 | 0 | -178 | -22 | · | · | · | ·
COc1ccc(C(C)(NC(C)=O)c2nc(-c3cccc(NC(C)=O)c3)cs2)cc1 (centres undefined) | -1 | 3 | 5 | -5 | · | · | · | ·
Cc1ccc(N(Cc2ccccc2)C(=O)CN2C(=O)NC3(CCCC3)C2=O)cc1 | -1 | 0 | 5 | 14 | i | 1 | -16 | -9

Compounds above that have a furan ring, fused or not, in the order listed:
SMILES | MT1-MMP act inh | MT1-MMP act inh RFP | Env fusion inh | UUG fidelity | Rce1 inhib | PABP polyA inh | CSC inhib | eIF4H inh
O=C(NC1CCCC1)c1cc2ccccc2o1 | 1 | 3 | -18 | -13 | i | 8 | 10 | -2
CC(C)Cn1c(N)c(C(=O)COC(=O)c2ccc([N+](=O)[O-])o2)c(=O)n(C)c1=O | -2 | -10 | 15 | · | i | -7 | 10 | -1
COc1ccc(S(=O)(=O)NCC(c2ccco2)N2CCc3ccccc3C2)cc1 (centres undefined) | 0 | 2 | · | -1 | i | · | 1 | ·
COc1ccccc1NC(=O)CSc1ncnc2c1oc1ccccc12 | 5 | 1 | 31 | 5 | · | -10 | -3 | -6
Cc1ccc2oc(=O)c(/C=C(\O)c3ccco3)nc2c1 | 1 | -1 | -14 | -3 | i | 6 | 4 | 6

(next part)
SMILES | MT1-MMP act inh | MT1-MMP act inh RFP | Env fusion inh | UUG fidelity | Rce1 inhib | PABP polyA inh | CSC inhib | eIF4H inh
CC(C)C(=O)Nc1ccc(C(=O)NNC(=O)CCCOc2ccc(Cl)cc2Cl)cc1 | 7 | 5 | · | -10 | i | 4 | -4 | -2
COc1ccccc1NC(=O)N1CCN(c2ccc3nncn3n2)CC1 | 2 | 4 | 0 | -24 | i | 1 | -7 | -8
NC(=O)c1ccccc1NC(=O)CCCCCn1nnc2ccccc2c1=O | 3 | 4 | -13 | -2 | i | -5 | -2 | -1
CCCOc1ccccc1C(=O)N(Cc1ccc(C)o1)C1CCS(=O)(=O)C1 (centres undefined) | 0 | 1 | 1 | -1 | i | 8 | -16 | -12
CC(=O)c1c(C(C)=O)c(C)n(Cc2ccc3c(c2)OCO3)c1C | -1 | -15 | 46 | 0 | i | 3 | -12 | 3
C/C(=N\N1CCN(c2ccccc2)CC1)c1ccncc1 | 2 | 0 | 21 | · | i | -7 | 6 | -4
CCOC(=O)CSc1nc(C(C)(C)C)cc(C(F)(F)F)c1C#N | 2 | 5 | -33 | · | i | -6 | -16 | -12
CCn1c(SCC(=O)NCc2cccs2)nnc1-c1cccs1 | 3 | 2 | · | · | i | -3 | -3 | 5
Cc1nc2c(-c3ccc(F)cc3)c(C)nn2c(C)c1CCC(=O)NC(C)CCc1ccco1 (centres undefined) | 4 | -14 | 65* | -12 | i | -17 | 13 | -6
O=C(/C=C/c1ccc(Cl)cc1)N(c1ccccn1)C1CCCCC1 | -4 | -4 | 30 | -2 | i | -9 | -16 | -5
COc1cccc(NC(=O)CN(C)C(=O)CSc2ccc3c(c2)OCCO3)c1 | 7 | 0 | 7 | 0 | · | · | · | ·
